miR-21 reporter: miR-21 reporter, rising signal. HeLa miR-21 FLuc reporter, luciferase, 48 h. Potency, µM (highest dose often 38.3 µM), inactives show at the top dose reporter change, positive = more light. 340,000 tested, under 10 active. AID 2288; active = well fitted rising curve with a large enough effect; inconclusive = small, poorly fitted or top-dose-only effect; inactive = no such curve, though single readings can be large or run the other way;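 also: % of control where 0% means no effect; miR-21 action dims this reporter so a rising signal means less miR-21 action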
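Using DMEM plus 10% FBS, HeLa miR-21-FLuc cells are incubated with test compounds (final up to about 40uM) for 48 hours; firefly luciferase signal is then imaged following reagent-mediated lysis.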
GLA inh pH 4.5: blocks human alpha-galactosidase A at pH 4.5; AID 1467; P06280; purified enzyme, 4-MU-alpha-Gal fluorescence, pH 4.5; 230,000 tested, under 10 active; activity change, negative = inhibition, % at 105 µM; inconclusive = small, poorly fitted or top-dose-only inhibition, or a rising curve; inactive = flat fitted curve, though single readings scatter; no compound was filed as active;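 also: 0% = full activity with enzyme and -100% = basal without enzyme; dose as in the result columns while the protocol names 77 µM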
Rango dissoc inh: inhibition of RanGTP-driven Rango-importin beta dissociation | AID 540253 | O95149+P62826 | hit rate 0.071% among 340,000 | Potency, µM (titrated, usually from 46.1 µM), without a hit: at the highest dose activity change, negative = inhibition | Biochemical FRET Rango-importin beta, RanGTP-induced dissociation; active means falling FRET ratio curve, often poorly fitted, with flat reads before Ran was added; inconclusive means other falling curves, or compound fluorescence or quenching; inactive means flat or rising ratio curve;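 also: potency is read from the fitted curve at half-maximal effect; % of control where 0% means no effect; nearly all actives have a fitted effect of over 45% in size; -100% = wells without RanGTP and RCC1; the record marks most hits as doubtful in a second field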
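Compounds preincubate 5 min with complex of recombinant Rango and importin beta in PBS with 1 mM DTT. Ran (0.6 uM) loaded with 2 mM GTP plus 0.2 uM RCC1 starts dissociation; FRET is recorded 45 min later.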
Rango complex inh: prevents formation of the Rango-importin beta complex; Q14974; hit rate 0.031% among 340,000; AID 540263; Potency, µM (doses to about 92.2 µM), for inactives: at the top dose inhibition of complex formation; Rango CFP/YFP FRET sensor + importin beta, 45 min; active = rising FRET ratio curve, often small or poorly fitted; inconclusive = mostly compound fluorescence or quenching in the first reads; inactive = flat curves in all reads;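 also: potency is read from the fitted curve at half-maximal effect; 0% = DMSO wells and 100% = buffer wells lacking importin beta; nearly all actives have a fitted effect of over 15% in size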
Target sequence (Q14974 whole entry, looked up): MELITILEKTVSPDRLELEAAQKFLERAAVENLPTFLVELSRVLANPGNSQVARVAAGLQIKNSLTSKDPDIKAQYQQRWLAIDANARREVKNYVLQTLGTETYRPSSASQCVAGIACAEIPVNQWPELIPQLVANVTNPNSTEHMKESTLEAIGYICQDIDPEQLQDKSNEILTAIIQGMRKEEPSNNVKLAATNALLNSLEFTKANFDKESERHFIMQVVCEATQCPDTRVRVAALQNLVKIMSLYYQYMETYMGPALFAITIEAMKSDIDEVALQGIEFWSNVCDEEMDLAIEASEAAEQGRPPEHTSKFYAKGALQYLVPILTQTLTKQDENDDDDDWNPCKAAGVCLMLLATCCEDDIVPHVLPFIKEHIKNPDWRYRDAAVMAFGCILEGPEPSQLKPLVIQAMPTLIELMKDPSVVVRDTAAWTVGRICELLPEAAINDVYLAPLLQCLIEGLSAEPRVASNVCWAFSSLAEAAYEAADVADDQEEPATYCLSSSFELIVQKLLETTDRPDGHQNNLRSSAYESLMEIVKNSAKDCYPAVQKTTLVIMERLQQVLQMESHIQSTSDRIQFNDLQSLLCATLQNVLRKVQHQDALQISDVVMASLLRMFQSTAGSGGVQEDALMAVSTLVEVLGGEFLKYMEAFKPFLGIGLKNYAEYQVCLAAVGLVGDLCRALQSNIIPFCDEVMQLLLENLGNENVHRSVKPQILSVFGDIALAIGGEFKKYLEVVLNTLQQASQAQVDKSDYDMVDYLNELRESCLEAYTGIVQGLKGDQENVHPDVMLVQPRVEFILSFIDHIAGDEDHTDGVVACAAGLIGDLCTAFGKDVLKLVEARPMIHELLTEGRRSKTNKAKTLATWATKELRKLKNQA
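Inhibition scored from the CFP 486 nm/YFP 530 nm FRET ratio 45 min after adding 0.125 microM importin beta to 50 nM Rango biosensor preincubated 5 min with compound (room temperature, PBS with DTT, Tween-20, BSA). No-importin wells as positive control.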
* marks the source's active call; other numbers are inactive results; ? = inconclusive; nt = no result given; [ ] = another dose, or the depositor's remark. Not all compounds are listed, so the mix of outcomes need not match the whole.

SMILES	miR-21 reporter	GLA inh pH 4.5	Rango dissoc inh	Rango complex inh
O=C(C1CC1c1ccccc1)N1CCN(c2cccc(Cl)c2)CC1 (stereo not drawn)	-3%	-3	-4%	-4.3%
Cc1cnc(C(=O)Nc2ccc(N3CCN(C(=O)OC(C)(C)C)CC3)cc2)cn1	11%	1	4%	2.6%
COC(=O)/C=C/c1oc2ccccc2c1C	-3%	-10	?	-0.2%
COC(=O)Nc1cc(C)n(-c2ccccc2)n1	-2%	-5	-12%	-1.5%
CSC1=NCCN1C(=O)c1c(F)cccc1Cl	-5%	7	-7%	0.5%
CCN(CC)S(=O)(=O)c1ccc(-c2nnc(SCC(=O)Nc3ccc4c(c3)OCO4)o2)cc1	5%	4	0%	-0.1%
Cc1cc(C(=O)CN2C(=O)C(=O)N(CCC3=CCCCC3)C2=O)c(C)n1C	nt	nt	-4%	-0.6%
O=C(Nc1cc(S(=O)(=O)N2CCOCC2)ccc1N1CCCC1)c1ccccc1C(F)(F)F	nt	nt	3%	0.3%
O=c1c2c(-c3ccc(Cl)cc3)csc2ncn1/N=C/c1cccc([N+](=O)[O-])c1O	-3%	-6[21.1 µM]	-4%	-1.2%
O=C(c1coc(=O)c2ccccc12)N1CCN(Cc2ccccc2)CC1	-1%	-1	-21%	?
COc1ccc(C(=O)C2CCCN(C3Cc4ccccc4C3)C2)cc1OC (stereo not drawn)	1%	2	?	7.1%
O=C(NC(=S)N1CCCc2ccccc21)c1ccco1	-27%	10	3%	-0.9%
CC(C)OCCCn1c(SC(C)C(=O)NC2CC2)nc2ccccc2c1=O (stereo not drawn)	nt	nt	-16%	-3.7%
CCOC(=O)C1=CN(Cc2ccco2)S(=O)(=O)N(C)C1c1ccc(F)c(Cl)c1 (stereo not drawn)	nt	nt	-9%	2.8%
C/C(=N\NC(=O)c1ccc(O)cc1)c1ccc(NC(=O)Cc2ccccc2)cc1	-34%	nt	-2%	1.7%
Cc1nonc1C1CCCN1Cc1cn[nH]c1-c1ccc2c(c1)OCO2 (stereo not drawn)	-1%	1	17%	-1.4%
Cc1cccc(NC(=O)CSc2nnnn2C2CCCC2)c1	1%	nt	4%	1.5%
O=C(c1cn(-c2ccccc2)nc1-c1ccncc1)N1CCCCC1	-9%	1	2%	4.1%
O=C(Nc1nccs1)c1ccc(S(=O)(=O)N2CCCCC2)cc1	-1%	6	6%	4.8%
Cc1ccc(CNC(=O)c2cc3c(s2)CN(Cc2ccccc2)C3)cc1	-3%	-4	18%	4.3%

Copied from the listing, five compounds:
SMILES	miR-21 reporter	GLA inh pH 4.5	Rango dissoc inh	Rango complex inh
CCOC(=O)C1=CN(Cc2ccco2)S(=O)(=O)N(C)C1c1ccc(F)c(Cl)c1 (stereo not drawn)	nt	nt	-9%	2.8%
C/C(=N\NC(=O)c1ccc(O)cc1)c1ccc(NC(=O)Cc2ccccc2)cc1	-34%	nt	-2%	1.7%
Cc1nonc1C1CCCN1Cc1cn[nH]c1-c1ccc2c(c1)OCO2 (stereo not drawn)	-1%	1	17%	-1.4%
Cc1cccc(NC(=O)CSc2nnnn2C2CCCC2)c1	1%	nt	4%	1.5%
O=C(c1cn(-c2ccccc2)nc1-c1ccncc1)N1CCCCC1	-9%	1	2%	4.1%

Next section.
SMILES	miR-21 reporter	GLA inh pH 4.5	Rango dissoc inh	Rango complex inh
Cc1oc(-c2cccc3ccccc23)nc1CN1CCN(c2ncnc3ccccc23)CC1	28%	10	28%	-4.3%
Cc1ccccc1-n1c(SCC(=O)N2CCN(c3ccccn3)CC2)nnc1N1CCOCC1	nt	nt	-9%	-0.5%
COc1ccc(C(=O)Nc2nc(C)c(C(=O)N(C)C)s2)cc1OC	-45%	3	-10%	2.1%
Cc1ccc(S(=O)(=O)NCCc2cc3ccc(C)c(C)c3[nH]c2=O)cc1	1%	nt	11%	2.2%
O=C(c1ccccc1)c1c[nH]cc1-c1ccccc1	-11%	-2	7%	-3.7%
COc1ccc(CCNS(=O)(=O)CCNC(=O)c2ccc3c(c2)OCO3)cc1	nt	nt	-7%	-2.2%
COc1ccc(CNC(=O)C[C@H]2C[C@H](C(=O)N3CCOCC3)[C@@]3(CCC4CCCC4)c4[nH]c5cc(-c6ccco6)ccc5c4CCN3C2=O)cc1OC	nt	nt	18%	-5.0%
O=C(COC(=O)c1ccc2c(=O)n3c(nc2c1)CCC3)NC1CCS(=O)(=O)C1 (stereo not drawn)	5%	3	-13%	?
CCOC(=O)Cc1[nH]nc2c1C(C1C=CCCC1)C(C#N)=C(N)O2 (stereo not drawn)	1%	-6	-17%	-2.9%
COc1ccc(OCCSc2nnc3sc4ccccc4n23)cc1	-40%	2	-1%	1.1%
CC1Cc2c([nH]c3ccccc23)C(=O)N1 (stereo not drawn)	3%	nt	-17%	-0.8%
COC(=O)c1cc(C(=O)CC(C)C)c[nH]1	-5%	1	-6%	0.7%
O=C(CSc1nnc2ccc(-c3ccccc3)nn12)NCC1CCCO1 (stereo not drawn)	-3%	8	3%	-1.6%
COc1cccc(NC(=O)C2CCCO2)c1 (stereo not drawn)	-14%	nt	-2%	-0.2%
c1ccc(CNn2nnnc2-c2ccccc2)cc1	-14%	4	-15%	-4.2%
CSc1ccc(/C=C(/NC(=O)c2ccco2)C(=O)NCc2ccco2)cc1	-5%	nt	-1%	2.5%
CC(C)NC(=O)C1CCN(C2CCN(C(=O)c3scc4c3CCCC4)CC2)CC1	-5%	25	-5%	-1.3%
COc1ccccc1CNS(=O)(=O)c1ccc(-c2cc(C)no2)cc1	24%	nt	17%	?
COc1ccccc1C(CNC(=O)c1ccc(S(=O)(=O)N2CCCCC2)cc1)N(C)C (stereo not drawn)	nt	nt	-11%	-2.6%
CNC(=O)NC(=O)CSc1nc2ccccc2n1CCOC	-5%	-2	10%	0.0%

Ordered by SMILES length (smallest number first): some entries from above
SMILES	miR-21 reporter	GLA inh pH 4.5	Rango dissoc inh	Rango complex inh
COc1cccc(NC(=O)C2CCCO2)c1 (stereo not drawn)	-14%	nt	-2%	-0.2%
CC1Cc2c([nH]c3ccccc23)C(=O)N1 (stereo not drawn)	3%	nt	-17%	-0.8%
O=C(c1ccccc1)c1c[nH]cc1-c1ccccc1	-11%	-2	7%	-3.7%

Later entries
SMILES	miR-21 reporter	GLA inh pH 4.5	Rango dissoc inh	Rango complex inh
COc1cccc(NC(=O)CN(C)C(=O)c2cccnc2Nc2cccc(C(F)(F)F)c2)c1	nt	nt	39%	-0.6%
CCOC(=O)Nc1nnc(-c2ccccc2OC)s1	-46%	4	-17%	5.4%
COc1ccc(C)cc1S(=O)(=O)N1CCN(C(=O)c2ncoc2-c2cccc(C)c2)CC1	-3%	nt	7%	3.5%
O=c1[nH]c(C2CCCN(S(=O)(=O)Cc3ccccc3)C2)nc2c1nnn2Cc1cccc(Cl)c1 (stereo not drawn)	-2%	nt	4%	?
O=c1ccc(/C=C/c2ccccc2)nn1Cc1ccc(F)cc1	-6%	1	-3%	-0.1%
CNC(=S)NNC(=O)c1sc2cc(C(F)(F)F)cnc2c1-c1ccccn1	6%	-5	0%	6.8%
Cc1cc(NC(=O)CSc2nnc(C3CC3)n2Cc2ccccc2)no1	-4%	3	-18%	-1.5%
CNC(=O)c1csc(-c2cccs2)n1	-15%	9	-24%	-0.4%
COc1ccc(NC(=O)CSc2ncn(-c3ccccc3)n2)cc1Cl	0%	1	3%	-2.6%
COc1ccc(Cl)cc1NC(=S)N(CCN1CCOCC1)C1CCN(C(C)=O)CC1	3%	-12	-6%	1.2%
CN(C(=O)c1cccc(NC(=O)Cc2cccc(NC(=O)C3CCCN(C(=O)C4CCC4)C3)c2)c1)C1CCC1 (stereo not drawn)	nt	nt	-4%	-1.1%
CCOC(=O)c1c(NC(=O)COC)sc2c1CCCC2	-7%	-12	5%	2.9%
CCOC(=O)CNC(=O)N1CCCC(CNS(=O)(=O)Cc2ccccc2)C1 (stereo not drawn)	-1%	-2	5%	-0.7%
O=C(O)CCC(=O)Nc1cccc(C(=O)c2ccccc2)c1	0%	2	0%	2.0%
COc1ccccc1N(CC(=O)N/N=C(\C)c1ccc(F)cc1)S(=O)(=O)c1ccccc1	nt	nt	2%	-4.3%
Clc1ccc(N=NN2CCOCC2)cc1	-22%	-10	-2%	-0.4%
COC(=O)Nc1c(-c2ccccc2)nc2ccccn12	1%	1	-3%	-2.6%
CCOc1ccc(-c2nc(CSc3nnc(N)s3)cs2)cc1OC	-43%	5	2%	-3.4%
CC(C)COc1ccc(CNC(=S)N/N=C/c2ccc([N+](=O)[O-])cc2)cc1	0%	-2	-17%	0.2%
CC1CCCC(NC(=O)CN(C)CC(=O)Nc2cccc(F)c2)C1C (stereo not drawn)	nt	nt	1%	-0.3%

Molecules above containing a nitro group on carbon, in the order listed:
SMILES	miR-21 reporter	GLA inh pH 4.5	Rango dissoc inh	Rango complex inh
O=c1c2c(-c3ccc(Cl)cc3)csc2ncn1/N=C/c1cccc([N+](=O)[O-])c1O	-3%	-6[21.1 µM]	-4%	-1.2%
CC(C)COc1ccc(CNC(=S)N/N=C/c2ccc([N+](=O)[O-])cc2)cc1	0%	-2	-17%	0.2%

Next compounds
SMILES	miR-21 reporter	GLA inh pH 4.5	Rango dissoc inh	Rango complex inh
O=C(CSCc1ccccc1)Nc1nccs1	-28%	-2	1%	-2.8%
COC(=O)C(Cc1ccccc1)NC(=O)CC(C)CC(=O)Nc1ccc(C)cc1 (stereo not drawn)	0%	nt	25%	0.9%
COc1ccc(-c2nc(NC(C)=O)sc2-c2ccc(OC)cc2)cc1	6%	11	2%	-0.3%
O=C(OCCN1CCCCC1)c1ccc(Cl)cc1	0%	-4	1%	-2.2%
CCOc1ccc(C(=O)NC2CCN(CC(=O)NCc3cccs3)CC2)cc1	-3%	-3	-12%	-0.2%
COCCn1c(SCC(=O)Nc2ccccc2OC)nnc1-c1ccco1	0%	nt	11%	-7.2%
COc1cccc(NC(=O)Cn2c(=O)n(C)c(=O)c3sc4c(c32)COC(C)(C)C4)c1	-2%	nt	26%	0.2%
C=CC[C@@H](CC(=O)N(CCO)Cc1ccccc1)C(=O)N[C@H](C)COC(=O)[C@@H](CC=C)Cc1ccc(F)cc1	nt	nt	-5%	-2.3%
COc1ccc(CCNC(=O)c2cc3sccc3n2C)cc1OC	-9%	7	1%	0.3%
COCC(C)Nc1ncnc2c1cnn2-c1ccc(Cl)cc1 (stereo not drawn)	-28%	-4	0%	0.7%
COCCNC(=O)C1CCN(S(=O)(=O)c2c(C)noc2/C=C/c2cccs2)CC1	0%	6	11%	-2.7%
c1ccc(C2=Nc3cccnc3C(c3ccccc3)=NN2)cc1	-2%	2	4%	-0.1%
O=C(Nc1ccccn1)C1CCN(C(=O)c2ccc(F)cc2)CC1	nt	nt	-7%	-3.6%
CCN(C[C@H]1N[C@@](CC)(C(=O)OC)[C@H]2C(=O)N(Cc3ccccc3)C(=O)[C@@H]12)S(=O)(=O)c1ccc(F)cc1	nt	nt	-1%	-2.1%
COC(=O)c1ccccc1NC(=O)C1COc2ccccc2O1 (stereo not drawn)	-60%	-10	14%	2.9%
CCOC(=O)c1cccc(NC(=O)CCNS(=O)(=O)c2cc(Br)cnc2N)c1	8%	nt	0%	1.9%
CCOC(=O)CSc1nc2c(sc(=S)n2Cc2ccco2)c(=O)n1-c1ccccc1	-4%	-5	11%	-2.1%
COc1ccc(C(=O)N2N=C(c3ccccc3)CC2(O)C(F)(F)F)cc1 (stereo not drawn)	1%	-5	4%	0.1%
COc1ccc(S(=O)(=O)N(C)CC(=O)NCCN2CCOCC2)cc1	-2%	nt	-20%	0.5%
Cc1ccc(CN2CC(C(=O)Nc3ncc(C)s3)CC2=O)cc1 (stereo not drawn)	nt	nt	-3%	0.3%
Cc1cc(C)c(OCC(=O)OCC(=O)NNC(=O)c2ccccc2F)c(C)c1	nt	nt	31%	-1.0%
N#C/C(=C\c1ccccc1)c1n[nH]c(Cn2cncn2)n1	-2%	-10	-15%	0.3%
Cc1ccc(C(C(=O)NC(C)(C)C)N(Cc2ccc3c(c2)OCO3)C(=O)c2ccc(CN3CCOCC3)o2)o1 (stereo not drawn)	-5%	-16	-18%	-0.1%
